MITF inhib: MITF inhibition. TRPM1 promoter luciferase, luminescence, 24 h. inhibition, % (concentration not given with the values). actives 0.28% (n = 37,000). AID 2240;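 active = most replicates at 85% or more, or half of them and the mean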;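 note: human melanocyte line stably carrying TRPM1 promoter luciferase reporter; 0% = vehicle wells and 100% = a positive control; the first replicate is given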
PD-1 reversal: activators reversing PD-1 mediated T-cell inhibition | primary human CD4 T cells, PD-L1 beads, CellTiter-Glo 96 h | activation, % (no concentration beside the values) | 29,000 tested, under 10 active;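 active = replicate mean of 50% or more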;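 note: 0% = median vehicle wells and 100% = positive control; 100 nL library stock added to about 50 µL; numbers are from one replicate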
YB-1 expr inh: YB-1 expression inhibition | U2OS, qRT-PCR YB-1 vs CDIP delta delta Cp, 16 h; active compounds read high; zero = DMSO, each unit about twofold | delta delta Cp (YB-1 minus CDIP) (test concentration not listed) | actives 0.37% (n = 30,000) | AID 434959;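 active = delta delta Cp rounded down to an integer at or above 3, about 3 SD of DMSO wells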;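 note: higher means less YB-1 transcript or more CDIP transcript relative to DMSO; stock transfer was 100 nL into about 100 µL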
Shh pathway inh: Sonic Hedgehog pathway inhibition | Shh-LIGHT2 Gli-luciferase reporter, 30 h | inhibition, % (no concentration beside the values) | actives 2.1% (n = 22,000);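 active = replicate mean of 65% or more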;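 note: pathway switched on by Shh-conditioned medium diluted 1 in 25 in low serum; 100 nL library stock added to about 40 µL; 0% = median of neutral wells and 100% = positive control level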
Active calls of the source: *; x = no result given.

Molecule	MITF inhib	PD-1 reversal	YB-1 expr inh	Shh pathway inh
C[C@H]1CN([C@@H](C)CO)C(=O)c2cc(NS(=O)(=O)c3ccccc3)ccc2O[C@@H]1CN(C)CC1CCCCC1	5	0.3	0.18	x
C[C@@H]1CN([C@H](C)CO)C(=O)c2cccc(NC(=O)Nc3ccccc3)c2O[C@@H]1CN(C)Cc1ccc(Oc2ccccc2)cc1	2	-0.5	-0.29	-29
COc1ccc(S(=O)(=O)Nc2cccc3c2O[C@@H](CN(C)C(=O)Nc2ccc4c(c2)OCO4)[C@H](C)CN([C@@H](C)CO)C3=O)cc1	-6	0.7	0.19	-41
C[C@@H]1CN([C@H](C)CO)C(=O)c2cc(NC(=O)Cc3ccccc3)ccc2O[C@@H]1CN(C)CC1CCCCC1	-8	-0.8	-0.044	-10
C[C@@H]1CCCCO[C@H](CN(C)Cc2ccc(C(=O)O)cc2)[C@@H](C)CN([C@H](C)CO)C(=O)c2cc(NC(=O)Nc3ccc(C(F)(F)F)cc3)ccc2O1	-2	0.2	0.052	x
Cn1c(=O)c2c(nc(NCC(O)c3ccccc3)n2Cc2ccc(F)cc2)n(C)c1=O (stereo not drawn)	41	-7.4	x	x
C[C@@H]1CCCCO[C@@H](CN(C)C(=O)Nc2ccccc2)[C@@H](C)CN([C@H](C)CO)C(=O)c2cc(NC(=O)NC3CCCCC3)ccc2O1	3	-0.4	-0.56	-56
COc1cc(OC)cc(-c2nnc(SCc3cccc(C(=O)O)c3)o2)c1	11	2.5	x	x
CCS(=O)(=O)Nc1cccc(C(=O)CC2(O)C(=O)Nc3ccccc32)c1 (stereo not drawn)	-3	0.5	0.068	-23
Cc1nc(SC(C(=O)O)c2ccccc2)cc(-c2ccccc2)n1 (stereo not drawn)	-20	-0.3	x	x
C=CC(C)(C)[C@@]12C[C@H]3C(=O)N[C@H]([C@@H](C)CC)C(=O)N3[C@@H]1Nc1ccccc12	-21	1.4	-0.22	-51
Cc1ccc(N(CC(=O)Nc2ccc(F)cc2)S(=O)(=O)N2CCCC2)cc1	7	0.0	x	x
C[C@@H]1CN([C@@H](C)CO)C(=O)c2cccc(NC(=O)C3CCCCC3)c2O[C@H]1CN(C)Cc1ccc(Cl)c(Cl)c1	8	-0.9	0.052	-1
C[C@@H]1CN([C@@H](C)CO)C(=O)c2cccc(NC(=O)c3ccncc3)c2O[C@H]1CN(C)Cc1ccc(C(=O)O)cc1	3	x	0.73	-34
CC(C)NC(=O)N(C)C[C@H]1Oc2c(NC(=O)c3nc4ccccc4s3)cccc2C(=O)N([C@H](C)CO)C[C@H]1C	2	-2.0	0.14	-12
CCN(CC)c1ncc2c(NCc3ccccc3)nc(SCc3ccccc3)nc2n1	7	-2.2	0.41	26
N#CC1CN(CCc2ccccc2)CN(CCc2ccccc2)C1	19	-6.2	-0.058	69*
Cc1cc(C)c(COc2ccc3c(c2C)OC(C)(C)CC3=O)c(C)c1	-6	1.3	0.31	-6
CNC[C@H]1Oc2ccc(NC(=O)c3ccncc3)cc2C(=O)N([C@H](C)CO)C[C@@H]1C	-7	1.1	0.23	x
C[C@@H]1CN([C@H](C)CO)C(=O)c2cccc(N(C)C)c2O[C@H]1CN(C)Cc1ccncc1	-5	x	-0.15	-11
Cc1noc(C)c1S(=O)(=O)Nc1cccc2c1O[C@@H](CN(C)S(=O)(=O)c1cn(C)cn1)[C@@H](C)CN([C@@H](C)CO)C2=O	1	1.2	-0.24	-13
C[C@@H]1CN([C@@H](C)CO)C(=O)Cc2cc(NC(=O)CCCN(C)C)ccc2O[C@@H]1CN(C)S(=O)(=O)c1ccccc1	1	0.8	0.089	x
COc1ccc(CN(C)C[C@@H]2Oc3c(NC(=O)Nc4ccc(OC)cc4)cccc3C(=O)N([C@H](C)CO)C[C@@H]2C)cc1	-2	x	0.24	-39
Cc1ccc(-c2cc(C(F)F)n3ncc(C(=O)NCc4ccco4)c3n2)cc1	-28	-4.9	x	x
C[C@@H]1CN([C@@H](C)CO)C(=O)c2cccc(NC(=O)c3ccc(-c4nccs4)cc3)c2O[C@@H]1CN(C)C(=O)Nc1ccc2c(c1)OCO2	-2	0.6	-0.42	9

4 entries picked at random from those above:
Molecule	MITF inhib	PD-1 reversal	YB-1 expr inh	Shh pathway inh
C[C@@H]1CCCCO[C@@H](CN(C)C(=O)Nc2ccccc2)[C@@H](C)CN([C@H](C)CO)C(=O)c2cc(NC(=O)NC3CCCCC3)ccc2O1	3	-0.4	-0.56	-56
C[C@@H]1CN([C@@H](C)CO)C(=O)Cc2cc(NC(=O)CCCN(C)C)ccc2O[C@@H]1CN(C)S(=O)(=O)c1ccccc1	1	0.8	0.089	x
CC(C)NC(=O)N(C)C[C@H]1Oc2c(NC(=O)c3nc4ccccc4s3)cccc2C(=O)N([C@H](C)CO)C[C@H]1C	2	-2.0	0.14	-12
CCN(CC)c1ncc2c(NCc3ccccc3)nc(SCc3ccccc3)nc2n1	7	-2.2	0.41	26

(list continues)
Molecule	MITF inhib	PD-1 reversal	YB-1 expr inh	Shh pathway inh
C[C@H]1CN([C@@H](C)CO)C(=O)c2cc(NC(=O)Cc3cn(C)c4ccccc34)ccc2O[C@H]1CN(C)S(=O)(=O)c1ccccc1	12	0.2	-0.65	x
CCN(CC)S(=O)(=O)c1ccc(OC)c(NC(=O)c2cc3ccccc3oc2=O)c1	-36	0.6	x	x
C[C@@H]1CN([C@@H](C)CO)C(=O)Cc2cc(NS(=O)(=O)c3ccc(F)cc3)ccc2O[C@@H]1CN(C)C(=O)NC1CCCCC1	12	-0.7	0.072	-4
C[C@H](CO)N1C[C@H](C)[C@@H](CN(C)Cc2ccc(C(F)(F)F)cc2)Oc2c(NC(=O)Nc3ccc(C(F)(F)F)cc3)cccc2C1=O	14	-4.3	0.21	-6
C[C@H]1CN([C@@H](C)CO)C(=O)Cc2cc(NC(=O)Nc3ccc(C(F)(F)F)cc3)ccc2O[C@@H]1CN(C)C(=O)Nc1ccccc1	-13	x	-0.43	x
C[C@@H]1CN([C@@H](C)CO)C(=O)c2cc(NS(=O)(=O)c3ccccc3)ccc2O[C@H]1CN(C)C(=O)Nc1ccc(C(F)(F)F)cc1	-6	0.3	-0.096	-14
Cc1cc(C)c(NC(=O)CN(c2ccc(Br)cc2)S(C)(=O)=O)c(C)c1	7	0.4	x	x
C[C@@H]1CN([C@@H](C)CO)C(=O)Cc2cc(NC(=O)Nc3ccc(F)cc3)ccc2O[C@@H]1CN(C)CC1CCCCC1	0	1.8	0.22	15
CC(Oc1ccc(Br)cc1)c1nc(-c2cccnc2)no1 (stereo not drawn)	-29	-0.3	x	x
COc1ccc(S(=O)(=O)N(C)C[C@H]2Oc3c(NC(=O)Nc4c(C)noc4C)cccc3C(=O)N([C@@H](C)CO)C[C@@H]2C)cc1	-34	0.1	-0.19	-199
C[C@H](CO)N1C[C@H](C)[C@H](CN(C)C(=O)Nc2cccc3ccccc23)Oc2ccc(NS(=O)(=O)c3cccs3)cc2CC1=O	4	-0.9	-0.17	-8
CC(=O)N1C(=N)S/C(=C\c2cc3ccccc3nc2Sc2ccccc2)C1=O	-6	1.0	0.13	-26
C[C@H](CO)N1C[C@H](C)[C@H](CN(C)Cc2ccc3c(c2)OCO3)Oc2c(NS(=O)(=O)c3ccc(Cl)cc3)cccc2C1=O	17	-0.9	-0.15	0
NC(=O)C1CCN(C(=O)CSc2nc3ccccc3o2)CC1	-13	0.7	x	x
O=C(Nc1ccccc1)c1cc([N+](=O)[O-])ccc1NCc1cccnc1	1	-1.9	x	x
S=C(NCc1ccco1)Nc1cccnc1	10	0.5	x	x
COc1ccc(NC(=O)N(C)C[C@@H]2Oc3ccc(NS(=O)(=O)c4ccc(C)cc4)cc3C(=O)N([C@H](C)CO)C[C@@H]2C)cc1	-14	1.3	-0.91	0
COc1ccc(NC(=O)N(C)C[C@H]2Oc3c(NC(=O)CCCCCC(=O)Nc4ccccc4N)cccc3C(=O)N([C@@H](C)CO)C[C@@H]2C)cc1	-1	0.7	-0.48	x
O=C(NCc1ccccn1)c1ccc(Cl)c(S(=O)(=O)N2CCOCC2)c1	-4	0.8	x	x
C[C@@H]1CN([C@H](C)CO)C(=O)Cc2cc(NC(=O)C3CCCCC3)ccc2O[C@@H]1CN(C)C	-18	x	-0.25	x
COC(=O)/C=C1/NCC(OC(=O)c2ccc(C(C)(C)C)cc2)CNC1=O (stereo not drawn)	1	-0.3	-0.053	-11
COc1ccc(O)c(-c2cnc(=S)[nH]c2-c2cc(OC)ccc2OC)c1	-31	-2.5	0.079	16
C[C@@H]1CN([C@H](C)CO)C(=O)Cc2cc(NC(=O)Nc3ccc(C(F)(F)F)cc3)ccc2O[C@@H]1CN(C)S(=O)(=O)c1ccc(Cl)cc1	16	0.1	0.12	-3
CC(C)NC(=O)Nc1cccc2c1O[C@H](CN(C)C(=O)NC(C)C)[C@@H](C)CN([C@@H](C)CO)C2=O	0	-0.7	-0.088	-13
C[C@H]1CN([C@@H](C)CO)C(=O)c2cccc(NC(=O)C3CCCCC3)c2O[C@H]1CN(C)Cc1ccc(C(=O)Nc2ccccc2N)cc1	0	-4.3	-0.23	x

Filtered by structure, those above with bromine (2)
Molecule	MITF inhib	PD-1 reversal	YB-1 expr inh	Shh pathway inh
Cc1cc(C)c(NC(=O)CN(c2ccc(Br)cc2)S(C)(=O)=O)c(C)c1	7	0.4	x	x
CC(Oc1ccc(Br)cc1)c1nc(-c2cccnc2)no1 (stereo not drawn)	-29	-0.3	x	x

Other structures.
Molecule	MITF inhib	PD-1 reversal	YB-1 expr inh	Shh pathway inh
CC(=O)Nc1ccc(NC(=O)CN(c2cccc(Br)c2)S(C)(=O)=O)cc1	-15	3.1	x	x
CC(C)NC(=O)Nc1ccc2c(c1)CC(=O)N([C@@H](C)CO)C[C@H](C)[C@H](CN(C)S(C)(=O)=O)O2	3	x	0.14	-25
COc1ccc(S(=O)(=O)Nc2cccc3c2O[C@H](CN(C)S(=O)(=O)c2c(C)noc2C)[C@@H](C)CN([C@H](C)CO)C3=O)cc1	-17	0.2	0.16	-35
C[C@@H]1CN([C@@H](C)CO)C(=O)c2cc(NC(=O)Cc3cn(C)c4ccccc34)ccc2O[C@@H]1CN(C)Cc1ccc(-c2ccccc2)cc1	16	x	-0.13	x
COc1ccc(C(=O)NCc2occc2C(=O)O)cc1	-17	1.2	x	x
COC(=O)c1cccc(NC(=O)CN(c2ccc(F)c(Cl)c2)S(C)(=O)=O)c1C	-9	-2.3	x	x
COc1ccc2c(OC)ccc3c2c1C=CC3=O	-27	-0.6	0.042	-46
CS(=O)(=O)N(CC(=O)Nc1ccc(I)cc1)c1ccc(Cl)cc1Cl	8	0.0	x	x
Cc1ccc(OCC(=O)Nc2ccc3oc(-c4cccnc4)nc3c2)c(C)c1	2	-3.1	x	x
C[C@H](CO)N1C[C@H](C)[C@@H](CN(C)S(=O)(=O)c2cn(C)cn2)Oc2c(NC(=O)C3CCOCC3)cccc2C1=O	5	2.0	0.049	-22
Cc1ccc(NC(=O)COc2ccccc2)c(NC(=O)c2ccco2)c1	2	0.7	x	x
C[C@@H]1CN([C@H](C)CO)C(=O)Cc2cc(NC(=O)Nc3ccc(F)cc3)ccc2O[C@@H]1CN(C)S(=O)(=O)c1cn(C)cn1	-3	x	0.16	-6
C[C@@H]1CN([C@@H](C)CO)C(=O)c2cccc(NC(=O)c3ccncc3)c2O[C@H]1CN(C)Cc1ccc(-c2ccccc2)cc1	11	1.1	0.35	24
C[C@H]1CN([C@@H](C)CO)C(=O)c2cc(NC(=O)Nc3ccc4c(c3)OCO4)ccc2O[C@@H]1CN(C)C(=O)Nc1ccccc1	-5	0.4	-0.16	-25
Cc1ccc(S(=O)(=O)Nc2ccc3c(c2)C(=O)N([C@@H](C)CO)C[C@@H](C)[C@@H](CN(C)C)O3)cc1	5	-0.3	0.18	3
C[C@@H]1CN([C@H](C)CO)C(=O)Cc2cc(NC(=O)Cc3ccccc3)ccc2O[C@H]1CN(C)C(=O)NC1CCCCC1	-8	1.0	0.4	-53
CC(C)NC(=O)Nc1ccc2c(c1)C(=O)N([C@H](C)CO)C[C@H](C)[C@H](CN(C)S(=O)(=O)c1ccc(F)cc1)OCCCC[C@@H](C)O2	2	1.6	0.21	-6
CCN(C(=S)Nc1ccc(C)cc1)c1ccccc1	0	-3.0	0.35	-54
COc1ccc(-n2nnnc2SCC(=O)Nc2cc(C)c(Cl)cc2OC)cc1	42	-7.1	x	x
Cc1ccc(Cl)cc1NC(=O)CC(C(=O)O)N(C)C (stereo not drawn)	-11	1.4	x	x
O=C(c1cnc2n(c1=O)CCS2)N(c1ccccc1)C1CCCCC1	8	-2.7	-0.021	-37
O=C(O)CNS(=O)(=O)c1ccc(C(=O)Nc2ccccc2)cc1	-4	3.2	x	x

Screening results: PubChem BioAssay, Broad Institute

An excerpt; count on the stated rates, not on these rows.
